Mtb H37Rv: M. tuberculosis H37Rv growth inhibitors, H37Rv strain (AID 1626). M. tuberculosis H37Rv growth inhibition; higher % means a stronger effect. one-dose inhibition, % at 10 µM; IC50 in µM for titrated hits. hit rate 0.95% among 220,000;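 active means confirmed in a dose series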;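 further: bacteria incubated seven days before Alamar blue readout; 0% = bacteria only wells and 100% = bacteria with antibiotic wells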
YopH PTP inh: YopH (Yersinia) phosphatase inhibition; hit rate 0.16% among 140,000; inhibition, %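 (about 10 µM by stock and volumes)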; fluorescence Ex485/Em525;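 active means inhibition of 50% or more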;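 further: controls were vehicle for no effect and minimum signal wells for full effect; inactives centre near -20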
Arbovirus inh: antivirals against arbovirus infection. arbovirus infection cell-based antiviral screen. inhibition, % at 10 µM. hit rate 0.37% among 200,000. AID 1251;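 active means inhibition from about 30%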;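 further: bluetongue infection of BSR cells; cell survival read as ATP light after 72 h; 0% = infected wells without compound and 100% = uninfected wells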
RecA intein inh: inhibitors of M. tuberculosis RecA intein splicing; hit rate 0.75% among 290,000; P9WHJ3; cell-free RecA intein splicing, fluorescence; AID 2221; inhibition, %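 (about 9 µM by stock and volumes)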; in the data active means inhibition above about 30%;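 further: 0% = vehicle wells and 100% = reference inhibitor control wells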
Target sequence (P9WHJ3 whole entry, looked up): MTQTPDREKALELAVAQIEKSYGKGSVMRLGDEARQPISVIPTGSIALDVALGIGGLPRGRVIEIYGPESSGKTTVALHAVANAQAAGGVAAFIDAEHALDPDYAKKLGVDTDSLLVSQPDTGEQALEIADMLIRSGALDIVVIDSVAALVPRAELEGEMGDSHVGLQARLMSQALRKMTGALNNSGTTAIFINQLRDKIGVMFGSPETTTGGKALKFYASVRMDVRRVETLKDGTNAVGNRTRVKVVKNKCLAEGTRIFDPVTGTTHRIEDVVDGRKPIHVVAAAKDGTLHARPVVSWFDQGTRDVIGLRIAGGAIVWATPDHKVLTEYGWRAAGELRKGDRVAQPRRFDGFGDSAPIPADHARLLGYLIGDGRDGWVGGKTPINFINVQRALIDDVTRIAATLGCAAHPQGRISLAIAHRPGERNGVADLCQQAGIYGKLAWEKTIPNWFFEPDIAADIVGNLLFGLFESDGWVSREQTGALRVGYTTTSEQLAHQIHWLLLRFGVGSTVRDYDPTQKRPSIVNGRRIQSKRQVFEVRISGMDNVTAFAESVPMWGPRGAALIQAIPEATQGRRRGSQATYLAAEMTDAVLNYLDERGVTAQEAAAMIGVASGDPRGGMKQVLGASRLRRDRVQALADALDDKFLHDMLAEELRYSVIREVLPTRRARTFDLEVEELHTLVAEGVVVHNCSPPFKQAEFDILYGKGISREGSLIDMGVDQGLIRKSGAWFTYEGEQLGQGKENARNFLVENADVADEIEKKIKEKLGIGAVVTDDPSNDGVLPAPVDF
Mtb betalactam: beta-lactam sensitization of Mtb H37Rv. M. tuberculosis H37Rv growth with meropenem, percent inhibition; hits of this screen are not shown here. inhibition, % at 25 µM. hit rate 0.27% among 330,000;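 active means about 74% or more and at least 40 points above the plate without the antibiotic, then above 30% in a dose series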;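 further: growth measured after seven days incubation then overnight dye step; 0% = bacteria only wells and 100% = bacteria with antibiotic; twin plates without the antibiotic show which effects depend on it; some results filed as inactive read as strong as hits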
Arbovirus inh repeat: further read-out of Arbovirus inh, marked with its call; inhibition, %; measured here: 10K subset replicate screen; many hits read low in the repeat;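 first of two repeat runs on a subset; 0% = infected and 100% = uninfected wells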
* marks the source's active call; other numbers are inactive results; . = not tested or not shown; & = joins results of further samples. Not all compounds are listed (hit frequency here may not be typical).

SMILES | Mtb H37Rv | YopH PTP inh | Arbovirus inh | RecA intein inh | Mtb betalactam | others
Cc1onc(-c2c(Cl)cccc2Cl)c1NC(=O)NC1CCSC1 (stereo unspecified) | -8% | . | . | -0.7 | -1
Cc1cccc(NS(=O)(=O)c2cccc(C(=O)N3CCCC3)c2)c1 | . | . | . | 0.3 | -6
Cc1ccc(CS(=O)(=O)c2cn(CC(=O)Nc3ccon3)c3ccccc23)cc1 | . | . | . | 3.5 | 1
COc1ccccc1NC(=O)Nc1ccc(F)c(F)c1 | 0% | . | 4 | 0.2 | -4
CN(C)CCN(C(=O)C1=COCCO1)c1nc2ccc(Cl)cc2s1 | . | . | . | 9.8 | 10
COC(=O)[C@@]1(Cc2ccc(OC)cc2)[C@H]2c3cc(C(=O)N4CCCC4)n(CCc4c[nH]c5ccc(O)cc45)c3C[C@H]2CN1C(=O)c1ccccc1 | 8% | 32 | -1 | . | .
COc1ccc(CNC(=O)c2cc(-c3cccs3)on2)cc1 | 4% | -39 | -15 | 0.9 | 4
O=[N+]([O-])c1ccc(CCNc2cccc3ccccc23)c([N+](=O)[O-])c1 | 3% | -11 | -18 | 1.4 | 47
Cc1cc(C)cc(N(CC(=O)Nc2cc(C)ccc2C)S(=O)(=O)c2c(C)[nH]c(=O)[nH]c2=O)c1 | . | . | . | 1.7 | 2
Cc1ccc(-n2ccnc(SCC(=O)NC3CCCCC3)c2=O)cc1F | . | . | . | 0.7 | -12
CCN(CC)S(=O)(=O)c1ccc(NC(=O)Nc2cccc(C(F)(F)F)c2)cc1 | 36% | -16 | -36 | 0.6 | 0
CC(C)=CC(=O)Nc1nnc(-c2ccccc2C)s1 | 8% | . | -3 | -1.4 | -1
N#Cc1ccc(CSc2nnc(NC(=O)c3ccc4ncsc4c3)s2)cc1 | 2% | . | -7 | 23 | -3
O=c1[nH]c(C2CCN(S(=O)(=O)/C=C/c3ccccc3)CC2)nc2c1nnn2Cc1ccc(F)cc1 | . | . | . | 8.3 | 92
CC(=O)NC1=NN(C(C)=O)C(C)(c2ccco2)S1 (stereo unspecified) | -7% | . | -2 | 0.4 | -12
O=C(NC1CCSC1)c1cccc(Cl)c1 (stereo unspecified) | 11% | . | . | . | -2
O=C(c1cccs1)C1C(c2ccc(Br)cc2)NC(=S)NC1(O)C(F)(F)F (stereo unspecified) | 4% | -26 | 14 | 2.3 | -2
O=C(Cc1cccs1)N(CC1CCCO1)C1(C(=O)NC2CCCCC2)CCCCC1 (stereo unspecified) | 3% | . | -12 | 0.7 | -1
CC(C)COc1ccc(CSCCNC(=S)Nc2ccccc2)cc1 | 3% | -20 | -45 | 11 | 67
O=[N+]([O-])c1c(NCc2ccccc2)cc(N2CCc3ccccc3C2)c2nonc12 | -10% | -11 | -2 | 7.2 | 13

3 structures from above, arranged by length of the SMILES, ascending:
SMILES | Mtb H37Rv | YopH PTP inh | Arbovirus inh | RecA intein inh | Mtb betalactam | others
CC(C)=CC(=O)Nc1nnc(-c2ccccc2C)s1 | 8% | . | -3 | -1.4 | -1
O=C(c1cccs1)C1C(c2ccc(Br)cc2)NC(=S)NC1(O)C(F)(F)F (stereo unspecified) | 4% | -26 | 14 | 2.3 | -2
O=[N+]([O-])c1c(NCc2ccccc2)cc(N2CCc3ccccc3C2)c2nonc12 | -10% | -11 | -2 | 7.2 | 13

Following part:
SMILES | Mtb H37Rv | YopH PTP inh | Arbovirus inh | RecA intein inh | Mtb betalactam | others
CC(C)(C#CCN1CCCC1)OCCC#N | -3% | -25 | 4 | -1.1 | 2
COc1ccc(Br)cc1CN1CCN(CCO)CC1 | -9% | -21 | -1 | -2.9 | -4
CC(C)CNC(=O)c1cccc(NC(=O)COc2cccc([N+](=O)[O-])c2)c1 | -1% | . | 0 | -2.2 | 4
CCOC(=O)c1sc2nc(C)c3c(c2c1N)CC(C)(C)OC3 | -2% | -20 | 1 | -6.1 | -8
CCOC(=O)C1(CCOC)CCN(C(C)CCc2ccc(OC)cc2)CC1 (stereo unspecified) | 0% | . | -6 | 2.3 | 2
COc1cccc2c(SCC(=O)N/N=C/c3ccc(O)c(O)c3)cc(C)nc12 | -2% | . | 1 | . | -2
COc1cc(/C=C/c2nc3ccccc3c(=O)n2-c2ccc(O)cc2)ccc1O | . | . | . | 2.3 | 41
COc1cccc(CN(C)C(=S)Nc2cccc(C)c2)c1 | 3% | . | 3 | -2.0 | -3
CCCN(CCC)CCCNC(=O)Cn1cnc2sc(C)c(S(=O)(=O)N3CCC(C)CC3)c2c1=O | . | . | . | 17 | 3
c1ccc(CSc2nnc3ccc(-c4ccncc4)nn23)cc1 | 1% | . | 4 | -4.8 | -9
Cc1cccc(OCCOC(=O)Nc2ccccc2)c1 | 4% | -26 | 8 | -1.3 | 5
CN(CC(=O)Nc1ccccc1Cl)C(=O)Cn1cc(C(F)(F)F)cc(Cl)c1=O | . | . | . | -4.2 | -4
O=C(Nc1ccccc1C(=O)NCCc1ccccc1)c1cnccn1 | . | . | . | 0.7 | -1
O=C(NCc1ccccc1)c1ccc(CN(c2ccccn2)S(=O)(=O)c2ccccc2)cc1 | -8% | -32 | 1 | . | 3
Cc1ccc(S(=O)(=O)N(C)C)cc1NC(=S)NNC(=O)C(N)=O | 2% | . | -2 | -2.7 | -7
COc1cc(C(=O)NS(=O)(=O)c2ccccc2C)ccc1Cc1cn(C)c2ccc(NC(=O)OC3CCCC3)cc12 | -3%&4% | . | -14 | 38* | 4
COc1ccc(CN2C(=O)CC(=O)NC2=O)cc1 | -4% | -31 | 5 | 0.0 | 7
CCOc1ccc(S(=O)(=O)N(CC)CC(=O)NCc2cccnc2)cc1C | . | . | . | -2.3 | 4
CCn1ccnc1CN1CCc2c([nH]c3ccccc23)C1CC(C)C (stereo unspecified) | -7% | . | -8 | 3.4 | 6
Nc1ccncc1 | 0% | -37 | -1 | 2.9 | -1
COc1cc2c(cc1OC)CN(CC(=O)Nc1ccc(F)cc1)CC2 | . | . | . | -12 | -1
COc1ccccc1C(=O)NC(CCSC)C(=O)NNC(=O)c1ccccc1C (stereo unspecified) | . | . | . | -6.5 | -3
O=C(NCCc1ccccc1)C1CCN(S(=O)(=O)c2cccnc2)CC1 | -4% | 1 | 4 | -0.5 | -4 | Arbovirus inh repeat=8
COCC1CCCN(Cc2cn(-c3ccccc3F)nc2-c2cc(C)sc2C)C1 (stereo unspecified) | 13% | . | -16 | 1.7 | 72
O=C(N/N=C/c1ccc(OC(=O)c2ccccc2Cl)cc1)c1ccc(O)cc1 | . | . | . | 10 | 2
CCC(=O)c1c[nH]c(C(=O)NCc2ccco2)c1 | -3% | 2 | 1 | -2.1 | -11
Cc1c(C(=O)N2CCCC2)oc2c1-c1[nH]ncc1CC2 | -1% | -23 | -7 | 1.6 | -8 | Arbovirus inh repeat=-2
CCNc1nc(Cl)nc(-c2cn(-c3ccccc3)c3ccccc23)n1 | -4% | . | . | -2.0 | 45
O=C(CCCCN1CCCCC1)c1ccccc1 | . | . | . | -1.3 | -7
O=C(Nc1ccccc1C(=O)O)c1cccc(NC(=O)c2ccccc2Br)c1 | . | . | . | -0.9 | 3
CC1CCN(CCNC(=S)Nc2ccc(Cl)cc2)CC1 | 2% | . | 2 | . | -4
CSc1ncc(Cl)c(C(=O)Nc2c(C)cccc2C)n1 | . | . | . | -0.9 | -1
COCC(=O)NC1CCN(C(=O)NCc2ccccc2)CC1 | -1% | 4 | 2 | 0.6 | 2
CCCc1ncc(C(O)c2ccc(OC)cc2)n1C (stereo unspecified) | -9% | -35 | 7 | -0.9 | 9
O=C(CN1CCCCC1)NNc1nc(-c2ccccc2)c2cc(Cl)ccc2n1 | 4% | . | -32 | 6.0 | 4
Cc1cc(/C=N/Nc2nc(N)ncc2[N+](=O)[O-])c(C)n1-c1cccc(C(F)(F)F)c1 | -8% | . | . | 0.6 | -5
N#Cc1cnc2cc(-c3ccccc3)nn2c1N | 3% | . | . | 0.2 | -3
CCOC(=O)c1cc(-c2ccc(C#N)cc2)nc2c1c(C)nn2CCC#N | -12% | -11 | 2 | 0.9 | 5
Cc1ccc(OCC(=O)Nc2cc(C(=O)O)cc(C(=O)O)c2)cc1C | 0% | . | 3 | 0.2 | -5
O=C(Nc1ccc2nc(C3CC3)n(Cc3ccccc3)c(=O)c2c1)C1CC1 | . | . | . | -2.2 | -1
COc1ccc(CCCC(=O)Nc2ccc(F)cc2)cc1 | 5% | -23 | -3 | 3.1 | -3
CCc1cc2c(=O)n(Cc3ccco3)c(SCC(=O)NC3CCS(=O)(=O)C3)nc2s1 (stereo unspecified) | 0% | . | 11 | -1.3 | 5
CCOC(=O)c1nc2c(ccc3ccccc32)cc1C | 1% | . | . | 2.2 | 20
NC(=O)CNC(=O)c1cccc(Cl)c1 | 2% | . | . | -4.6 | 0
CCC(=O)N1CCc2cc(S(=O)(=O)NCCC(=O)Nc3ccccc3C)ccc21 | -6% | -25 | 0 | 1.0 | -6
C=C(C)c1cccc(C(C)(C)NC(=O)Nc2ccc(OC)cc2)c1 | 1% | . | 2 | -1.6 | -3
NC(=O)CC(NC(=O)Cc1cccc2ccccc12)c1ccc(N2CCN(c3ccc(F)cc3)CC2)c([N+](=O)[O-])c1 (stereo unspecified) | -1% | . | . | -0.6 | -5
CCCCn1c(O)c(C(C)=Nc2c(C)n(C)n(-c3ccccc3)c2=O)c(=O)[nH]c1=O | -2% | -68 | -13 | -4.0 | -9
COC(=O)[C@@]1(Cc2ccc(OC)cc2)[C@H]2c3cc(C(=O)N4CCCC4)n(Cc4ccc(OC)c(OC)c4)c3C[C@H]2CN1C(=O)c1ccccc1 | 14% | -10 | 7 | . | .
O=C(CCN1C(=O)c2ccccc2S1(=O)=O)N1CCN(c2cccc(Cl)c2)CC1 | . | . | . | 2.6 | -4

Looked up by structure from the list above, 5 records:
SMILES | Mtb H37Rv | YopH PTP inh | Arbovirus inh | RecA intein inh | Mtb betalactam | others
O=C(NCCc1ccccc1)C1CCN(S(=O)(=O)c2cccnc2)CC1 | -4% | 1 | 4 | -0.5 | -4 | Arbovirus inh repeat=8
CCCCn1c(O)c(C(C)=Nc2c(C)n(C)n(-c3ccccc3)c2=O)c(=O)[nH]c1=O | -2% | -68 | -13 | -4.0 | -9
CC(C)CNC(=O)c1cccc(NC(=O)COc2cccc([N+](=O)[O-])c2)c1 | -1% | . | 0 | -2.2 | 4
CN(CC(=O)Nc1ccccc1Cl)C(=O)Cn1cc(C(F)(F)F)cc(Cl)c1=O | . | . | . | -4.2 | -4
CC1CCN(CCNC(=S)Nc2ccc(Cl)cc2)CC1 | 2% | . | 2 | . | -4

(listing goes on)
SMILES | Mtb H37Rv | YopH PTP inh | Arbovirus inh | RecA intein inh | Mtb betalactam | others
O=C(CSc1nnc(CNc2ccc(F)cc2)o1)OC1CCCCC1 | 25% | 3 | 9 | -2.7 | 99
O=C(N/N=C/c1ccc(O)c2ncccc12)c1cccc(Br)c1 | -4% | . | -29 | -4.4 | 5
CC1=C(C(=O)OCc2ccccc2)C(c2ccccc2)NC(=O)N1 (stereo unspecified) | . | . | . | 2.6 | 6
Cc1cc(N2CCN(c3ccccc3)CC2)n2c(n1)nc1ccccc12 | 2% | -6 | 8 | -3.5 | 44
Nn1c(SCC(=O)Nc2ccccc2F)nnc1-c1cccs1 | . | . | . | -2.8 | -10
COc1ccc(N2CCN(C(=O)CSc3ncn[nH]3)CC2)cc1 | . | . | . | -7.2 | -13
COCc1nnc(NC(=O)CS(=O)(=O)c2ccc(C)cc2)s1 | . | . | . | -0.4 | 0
COC(=O)c1ccccc1NC(=O)CSc1nnc(-c2ccc(C)cc2)o1 | 6% | 21 | 11 | -3.3 | .
Cc1ccccc1C(=O)NC(CC(C)C)C(=O)Nc1ccc(F)c([N+](=O)[O-])c1 (stereo unspecified) | 6% | -19 | 1 | 2.4 | -6
CCOC(=O)Cc1cn2c(=O)cc(CSCC(=O)Nc3ccc(C)c(C)c3)nc2s1 | -3% | -32 | 2 | -1.7 | -4
O=C(NCc1cccs1)c1cc(-c2ccncc2)nc2ccc(Br)cc12 | 72% | . | -5 | 0.6 | 95
O=C(CSc1ccc(-c2ccc(F)cc2)nn1)N1CCCCC1 | -7% | -5 | 4 | 0.7 | -8
Cc1cc(NC(=O)Cn2nc(C(F)(F)F)c3c2CCCC3)no1 | 2% | -15 | 2 | -0.3 | -5
COc1ccccc1NC(=O)C(O)C(O)C(=O)Nc1ccccc1OC (stereo unspecified) | -8% | 0 | 1 | -0.4 | 0
CCc1nn2c(NCCOC)cc(C)nc2c1-c1ccc(F)cc1 | 1% | . | 12 | -1.0 | 23
COc1ccccc1OCCNC(=O)CNC(=O)c1ccc(Cl)c(Cl)c1 | . | . | . | 0.1 | 2
S=C(c1ccc(-c2cccc(Cl)c2)o1)N1CCCCC1 | 6% | . | 21 | 18 | 11
Cc1cccc(-n2nnc(C(=O)NCc3ccc4c(c3)OCO4)c2N)c1 | -12% | -53 | -14 | 1.4 | 8
COc1cccc(CN2CCN(Cc3ccc4cccc(F)c4n3)CC2CCO)c1 (stereo unspecified) | . | . | . | -1.2 | -2

High-throughput results: PubChem BioAssay, several laboratories
